# Screening data (PubChem BioAssay)
# HIV Env fusion – HIV envelope-mediated fusion inhibition. HeLa-JRFL Env/CEM21 cell fusion, luciferase. inhibition, % at 12.3 µM. 360,000 tested, 1.1% active. AID 651610;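 active = mean replicate inhibition score of at least 50 and every replicate individually at or above 50; inconclusive = only one of the two criteria met; inactive = mean below 50 and not all replicates reaching 50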;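 note: 0% = plate neutral controls and 100% = maraviroc near 300 nM; one replicate is shown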
# Yeast UUG start – alters start codon recognition fidelity in yeast. activity score, % at 18.7 µM. S. cerevisiae UUG-firefly luciferase reporter, luminescence/redox ratio. 350,000 tested, 0.13% active;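 active = replicate mean at a twofold rise or more, about +100% in these data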;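 note: firefly luciferase made from a UUG start codon reports start codon fidelity; reporter light over untreated wells divided by growth signal over untreated wells; some hits fall short of that in this replicate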
# MT1-MMP act inh – inhibitors of human MT1-MMP activation. P50281. HT1080 RFP-PRO-GFP cells, GFP/RFP ratio fluorescence, overnight; percent of plate control window, DMSO zero. GFP/RFP ratio change, % at 20 µM. 360,000 tested, 0.061% active. AID 651647;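 active = GFP/RFP ratio change of at least 30% with cell ATP level not reduced by more than half and red fluorescence within 50% of control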; note: strong numbers were not always called active
#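 Assay system: RFP-PRO-GFP reporter HT1080 cells; read-out basis: GFP/RFP fluorescence ratio; benchmarks: DMSO wells and RFP-L50D-GFP cells; doses: 20 µM single dose, 1% DMSO; schedule: overnight cell settling, then overnight compound exposure, 37 °C, 5% CO2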
# PABP polyA inh – PABP-poly(A) binding inhibition | PABP-poly(A) RNA binding, fluorescence polarization | P11940 | 290,000 tested, 1% active | inhibition, % at 35 µM | AID 2014;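 active = 50% or more with normal probe brightness, or confirmed in later tests; inconclusive = above 50% with abnormal brightness, or retests that disagree; inactive = below 50% or failed in later tests; about a fifth of its hits are not listed in these tables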;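 note: calls also rest on retests at 20 µM and on dose response follow-up; controls were probe without protein and protein plus probe with vehicle; some compounds called inactive have numbers as strong as hits; many hits fall short of the cut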
# Rce1 inh – inhibitors of yeast Ras-converting enzyme | Q03530 | calls only | yeast membranes, quenched prenylated peptide cleavage fluorescence | 290,000 tested, 0.27% active;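 active = fall in fluorescence gain of 50% or more versus controls, with final raw signal at or below 3038400; inconclusive = same 50% fall but final raw signal above 3038400; inactive = fall in fluorescence gain under 50%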;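 note: plate controls were neutral control wells for no effect and wells lacking membranes for full effect; tested at 10 µM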
# Target sequence (Q03530 whole entry, looked up): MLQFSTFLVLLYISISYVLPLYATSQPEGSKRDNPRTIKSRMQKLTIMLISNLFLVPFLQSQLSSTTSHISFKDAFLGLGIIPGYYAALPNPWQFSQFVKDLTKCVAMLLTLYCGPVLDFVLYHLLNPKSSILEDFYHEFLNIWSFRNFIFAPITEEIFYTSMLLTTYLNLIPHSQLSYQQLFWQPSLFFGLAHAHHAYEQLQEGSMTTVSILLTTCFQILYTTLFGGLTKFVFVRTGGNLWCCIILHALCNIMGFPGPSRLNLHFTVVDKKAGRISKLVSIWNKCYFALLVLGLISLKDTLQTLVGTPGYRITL
# CSC inhib – cancer stem cell inhibition | inhibition, % at 7.5 µM | 300,000 tested, 1.1% active | AID 2717 | cancer stem cell-like cells viability, luminescence;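 active = mean at 75% or more and at least half the replicates too; inconclusive = mean and replicates disagree; tested in HMLE shEcad cells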;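 note: 0% = median of negative and 100% = median of positive control wells; the first replicate is given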
# eIF4H FP inh – inhibitors of RNA binding by human eIF4H; inhibition, % at 35 µM; AID 2012; 290,000 tested, 0.94% active; eIF4H fluorescence polarization binding assay; Q15056;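 active = 50% or more with normal probe brightness, or confirmed in later tests; inconclusive = above 50% with abnormal brightness, or retests that disagree; inactive = below 50% or failed in later tests; about a fifth of its hits are not listed in these tables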;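 note: calls also rest on retests at 20 µM and on dose response follow-up; 0% = protein and probe with vehicle and 100% = probe without protein; strong numbers were not always called active; many hits fall short of the cut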
# MT1-MMP act inh RFP – further read-out of MT1-MMP act inh, marked with its call; RFP signal change, %; measured here: RFP expression control read;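 0 = vehicle wells; hits needed this value within 50% of zero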
# Starred values were filed as active, the others as inactive; i = inactive; ? = inconclusive; · = no result given; + = active, no number. A portion of the library. The share of hits here may be higher or lower than overall.
mol,Rce1 inh,CSC inhib,Yeast UUG start,MT1-MMP act inh,eIF4H FP inh,PABP polyA inh,MT1-MMP act inh RFP,HIV Env fusion
CC(C)n1nnnc1SCC(=O)Nc1ccccc1F,i,-10,-4,2,-12,4,1,-8
CCCCCC(=O)Nc1cccc(C2=NOC3(C2)C[C@H](C(N)=O)N(C(=O)[C@H]2CCC(=O)N2)C3)c1 (some centres not stated),i,-11,-8,-4,-8,8,4,-12
O=C(NC(=S)Nc1ccc2oc(=O)ccc2c1)c1cccc(F)c1,i,12,2,0,-8,3,1,-10
CC(C)(O)C#Cc1ccc([C@@H]2C[C@H]3CN(c4ccccc4)C(=O)[C@]34CCCN24)s1,i,41,·,-24,15,-6,-10,-8
O=C(O)C[C@H]1c2ccc(C(F)(F)F)cc2S(=O)(=O)N1C1CCCCC1,i,-13,-8,4,·,·,4,-20
CC(OC(=O)CCc1nc2ccccc2[nH]c1=O)c1ccccc1 (configuration not stated),i,-11,·,2,-2,1,5,-27
CCC(C(=O)Nc1ccccc1)c1ccccc1 (configuration not stated),i,-4,-19,-8,4,3,0,-26
CC1(C)C(=O)OC(c2ccccc2)C(C)(C)C1=O (configuration not stated),i,-9,-11,1,-13,8,2,14
CC(C)C(NC(=O)CN1C(=O)c2ccccc2C1=O)c1ccccc1 (configuration not stated),i,0,-14,-1,-6,2,-1,-10
CC(C)(C)c1cc(-c2n[nH]c(=S)n2-c2ccc(Cl)cc2)n[nH]1,i,-13,·,1,-1,2,-1,-8
COc1ccc(CC2(C)OC(c3ccncc3)=NN2C(C)=O)cc1 (configuration not stated),i,4,·,-3,-9,-8,2,-16
CC1Cc2cc(S(=O)(=O)N3CCN(c4ccc(Cl)cc4)CC3)ccc2N1C(=O)C1CC1 (configuration not stated),i,-22,0,7,-20,-3,-30,8
Cc1cc(NC(=O)CSc2nc3c(sc4ccccc43)c(=O)n2CCc2ccccc2)n[nH]1,i,-2,-20,1,-20,-9,-3,-64
O=C(CCN1C(=O)/C(=C/c2ccc(F)cc2)SC1=S)Nc1cccnc1,i,-3,-5,6,-3,1,4,-1
O=C(CSc1ncnc2scc(-c3ccccc3)c12)N1CCN(c2ccccc2F)CC1,i,24,0,-10,-12,7,-7,20
CCC1CCCCN1CCCn1c(=S)[nH]c2ccccc2c1=O (configuration not stated),i,-3,2,1,-10,-7,4,·
COc1ccc(Cl)cc1C(=O)OCC(=O)NC1CCCC(C)C1C (configuration not stated),·,·,7,1,·,·,0,-3
COc1cc(NC(=O)C2CCN(S(=O)(=O)c3cccs3)CC2)cc(OC)c1,i,-3,·,6,·,·,-2,3
Cc1ccc(N2C(=O)CC(Sc3nc4ccccc4o3)C2=O)cc1Cl (configuration not stated),i,-6,-17,2,-3,2,1,-44
CN(C)c1ccc(N=Cc2ccco2)cc1,·,·,-32,15,38,25,6,·
CCC1NC(=O)c2cc3ccccc3cc2-n2c1nc1cc(OC)c(OC)cc1c2=O (configuration not stated),·,·,1,2,·,·,-1,-1
CC(=O)c1cc(-c2ccc(F)cc2)n(CCC(=O)NC(C)(C)C)c1C,i,-17,·,1,15,-3,3,-14
COc1ccc(OC)c(C2C(C#N)=C(N)N(N(C)C)C3=C2C(=O)CC(C)(C)C3)c1 (configuration not stated),i,-4,·,2,-6,4,4,23
O=c1[nH]c(C2CCCCC2)nc2ccccc12,i,·,·,-1,8,-7,1,-9
COc1cc(C(C)=O)ccc1OCC(=O)Nc1ccc(S(=O)(=O)N2CCCCC2)cc1,·,·,11,5,·,·,-4,2
O=C(Cc1ccccc1)Nc1cccc(N2CCCC2)c1,i,16,4,4,-2,5,3,-17
CC(=O)c1c(C)[nH]c(C(=O)OCC(=O)Nc2ccccc2Cl)c1C,i,13,·,3,-1,20,-20,30
CS(=O)(=O)c1ccc(Cl)c(NC(=O)COC(=O)CCc2c[nH]c3ccccc23)c1,i,2,-19,3,·,·,-2,-4
Cc1ccc2oc(Nc3nc(C)cc(C)n3)nc2c1,i,-15,-39,7,-2,-2,1,-100
Cn1cc(Cl)nc1C(O)c1ccccc1 (configuration not stated),i,-8,·,5,-4,-9,5,·
Cc1cc2ccccn2c1C(=O)c1cc([N+](=O)[O-])cc([N+](=O)[O-])c1,i,-5,·,6,-4,10,-1,15
COc1ccc(N(CC(=O)NCCSCc2ccccc2Cl)S(C)(=O)=O)cc1Cl,i,1,17,3,-5,9,-7,?
O=Cc1ccc(Sc2ncccn2)o1,·,·,-13,1,2,4,0,-10
CC(=O)Nc1ccc(NC(=O)c2cc(C)nn2-c2ccccc2)cc1,i,-7,-16,1,3,6,1,-16
CCOc1cc(/C=C2/SC(=S)N(C)C2=O)ccc1Oc1ccc([N+](=O)[O-])cc1[N+](=O)[O-],i,-5,·,·,1,15,·,·
Cc1ccc(C(=O)Nc2ccon2)cc1S(=O)(=O)N1CCCCCC1,i,-9,-20,7,-8,-7,2,-4
COCC(=O)Nc1cc(C(=O)Nc2ccccc2)ccc1Cl,i,-4,·,·,1,-13,·,-18
CC(=O)N1CCOC12CCN(Cc1ccccc1)CC2,·,·,-17,-3,·,·,3,-7
CCCCN1C(=O)C(CC(=O)NCc2cccc3ccccc23)CC(C(=O)N(C)C)=C1C (configuration not stated),·,·,0,4,·,·,3,-8
CCCc1nc2sc(C(=O)OCC)c(N)c2c2c1COC(C)(C)C2,i,14,-29,1,-3,-12,-4,·
COc1ccccc1CC(=O)O/N=C(\N)c1cccc([N+](=O)[O-])c1,i,20,1,-5,-1,5,-1,-3
COc1ccc(CCNC(=O)NCCc2c[nH]c3ccccc23)cc1OC,i,-7,-12,2,0,9,0,0
CCC1CCCCN1S(=O)(=O)c1ccc(NC(=O)c2cccs2)cc1 (configuration not stated),i,32,1,1,-4,-16,-4,·
CCC(=O)Nc1cc(-c2nc3ncccc3o2)ccc1Cl,i,11,-6,-2,-8,-9,0,-29
COc1ccc(Cl)cc1NC(=S)N1CCCCCC1,i,10,-3,1,-6,4,0,·
CC(C)CN1C(Nc2ccccc2)=NC[C@@H]1C,i,0,-19,0,-5,6,3,11
Cc1cc(C)cc(NC(=O)COC(=O)c2cccc(S(=O)(=O)N3CCCCC3)c2)c1,·,-4,3,4,·,·,6,·
Cc1ccc(S(=O)(=O)N2CC(O)C[C@H]2C(=O)OCC(=O)N2CCN(c3ccc(F)cc3)CC2)cc1C (some centres not stated),·,·,-5,6,·,·,-11,25
Cc1ccccc1S(=O)(=O)c1cc(C#N)c(=O)[nH]c1N,+,-13,-16,-2,29,3,3,-12
CCCc1nnc(NC(=O)CCCN2C(=O)c3ccccc3C2=O)s1,i,0,-9,2,3,-10,3,·
Cc1ccc(NC(=O)C/C(N)=N/OC(=O)c2ccccc2)cc1,i,-1,·,-1,-8,-13,0,-7
COc1ccc(S(=O)(=O)Nc2ccc(S(=O)(=O)N3CCCCC3)cc2)cc1OC,i,14,5,0,-2,-7,-1,15
COc1cc2c(cc1NC(=O)c1ccc(C(C)(C)C)cc1)CCCC2,i,58,-2,-1,4,0,2,-23
CCC(=O)N1CCC(c2ccc(OC)cc2)=N1,i,10,·,-1,-3,9,-1,-72
COc1ccc(NC(=O)CCNS(=O)(=O)c2cc(Br)ccc2Br)cc1S(N)(=O)=O,i,·,-8,0,-8,-14,0,7
Cc1ccc(SCC(=O)OCC(=O)N(C)CC(=O)Nc2ccc(F)cc2)cc1C,i,-13,15,6,·,·,4,-5
COc1ccccc1OCCn1cc(C(=O)O)c2ccccc21,i,1,-18,-11,-6,2,3,5
Cc1cc(C(=O)N2CCc3ccccc32)ccc1[N+](=O)[O-],·,·,-9,4,·,·,1,11
CCN(CCn1cccn1)C(=O)c1ccc(OC2CCN(C(=O)CCOC)CC2)cc1,·,·,-6,-1,·,·,4,6
CCOc1ccc(C(=O)Nc2c3c(nn2C(C)(C)C)CSC3)cc1OCC,i,-11,-2,1,-5,-8,-3,-22

# (cont.)
mol,Rce1 inh,CSC inhib,Yeast UUG start,MT1-MMP act inh,eIF4H FP inh,PABP polyA inh,MT1-MMP act inh RFP,HIV Env fusion
CC(=C1C(=O)c2ccccc2C1=O)N1CCN(c2ccc(F)cc2)CC1,i,-7,·,0,6,8,2,-1
CCOc1ccc(NC(=O)CSc2nnc(C3CC3)n2C2CC2)cc1,·,1,-7,-2,·,·,-1,·
Nc1[nH][nH]c(=O)c1N=Nc1ccccc1,·,·,-11,6,·,·,2,-4
CC1Sc2ccc(S(=O)(=O)CCC(=O)NC3CCCCC3C)cc2NC1=O (configuration not stated),i,-2,-10,-1,-13,-2,-4,2
COc1cccc(N2C(=O)CC(NNC(=O)c3cccs3)C2=O)c1 (configuration not stated),i,6,-4,12,-7,13,6,-3
COc1ccc(Cl)cc1-c1nc(SCC(=O)NC2CC2)n[nH]1,i,-5,·,1,-3,-12,6,-3
CCC/C=C(\CCC)C(NC(=O)OCC(C)C)c1ccc(C(=O)OC)cc1 (configuration not stated),i,31,6,-8,1,2,-8,31
CC(=O)N1N=C(c2ccc(C)cc2)CC1c1ccc2c(c1)OCO2 (configuration not stated),i,-3,·,2,6,2,-5,-25
O=C(NCc1ccccc1)c1ccc(C2SCC(=O)N2Cc2ccccc2)cc1 (configuration not stated),i,-9,·,2,4,5,-7,·
Cc1nnc(NC(=O)c2ccc(-c3cccc(C(F)(F)F)c3)o2)s1,·,16,-2,9,-19,4,0,-54
Cc1cc(N2C(=O)C(=O)/C(=C(/O)c3ccc(F)cc3)C2c2ccc(Cl)cc2)no1 (configuration not stated),i,8,7,-1,1,19,0,-32
Cn1cccc1C(=O)NC(=O)COC(=O)c1ccccc1O,i,-23,·,1,-4,5,0,26
COc1ccc2c(=O)cc(CO)oc2c1,·,-14,-15,-1,·,·,5,-44
O=C(Nc1ccccc1)N1CCC(C(=O)N(Cc2ccco2)Cc2cccs2)CC1,i,-10,-13,-1,-3,-3,-4,-50
Cc1nc(SCC(=O)N2CC(C)OC(C)C2)nc(C)c1C (configuration not stated),i,-11,-3,3,-7,-2,3,-17
O=S(=O)(N1CCCCCC1)N1CCNCC1,i,-2,-15,0,-2,5,1,8
Cc1ccc2nsnc2c1S(=O)(=O)N1CCN(CCc2ccccc2)CC1,i,3,-7,-3,-2,-4,-1,-49
CN1CCC(NC(=O)CCc2ccccc2)CC1,i,·,-1,-3,14,0,2,8
Cc1cnc(C(=O)OCC(=O)NC(C)C)cn1,i,-11,3,0,9,4,6,-21
Cc1ccc(-n2c(C)cc(/C=N/NC(=O)c3ccncc3)c2C)cc1,i,-8,-35,2,-9,-9,1,-8
Cc1cccc2cc(COC(=O)C(C)C)c(=O)[nH]c12,i,-14,-13,2,2,-4,9,·
Cc1ccnc(NC(=O)CNC(=O)c2ccccc2)c1,i,-1,-18,-3,·,·,-1,-14
COC(=O)c1c(C)n(-c2ccc(OC)cc2)c2ccc(O)cc12,i,·,-12,-12,-2,4,-12,·
Cc1cc(C)n(/N=C/c2ccccc2O)c(=O)c1,i,-3,2,-2,4,20,1,-7
